# Screens (PubChem BioAssay)
# HIV Env fusion = blocks HIV Env-driven cell-cell fusion. HeLa-JRFL Env/CEM21 cell fusion, luciferase. inhibition, % at 12.3 µM. hit rate 1.1% among 360,000;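 active means mean replicate inhibition score of at least 50 and every replicate individually at or above 50; inconclusive means only one of the two criteria met; inactive means mean below 50 and not all replicates reaching 50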;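 further: 0% = plate neutral controls and 100% = maraviroc near 300 nM; one replicate is shown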
# eIF4H FP inh = inhibitors of RNA binding by human eIF4H; Q15056; eIF4H fluorescence polarization binding assay; hit rate 0.94% among 290,000; AID 2012; inhibition, % at 35 µM;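 active means 50% or more with normal probe brightness, or confirmed in later tests; inconclusive means above 50% with abnormal brightness, or retests that disagree; inactive means below 50% or failed in later tests; about a fifth of its hits are not listed in these tables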;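 further: calls also rest on retests at 20 µM and on dose response follow-up; 0% = protein and probe with vehicle and 100% = probe without protein; strong numbers were not always called active; many hits fall short of the cut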
# Yeast UUG start = modulators of start codon recognition fidelity in yeast | S. cerevisiae UUG-firefly luciferase reporter, luminescence/redox ratio | activity score, % at 18.7 µM | hit rate 0.13% among 350,000 | AID 602363;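 active means replicate mean at a twofold rise or more, about +100% in these data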;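 further: firefly luciferase made from a UUG start codon reports start codon fidelity; reporter light over untreated wells divided by growth signal over untreated wells; some hits fall short of that in this replicate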
# Rce1 inh = inhibitors of yeast Ras-converting enzyme. calls only. hit rate 0.27% among 290,000. Q03530. yeast membranes, quenched prenylated peptide cleavage fluorescence;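 active means fall in fluorescence gain of 50% or more versus controls, with final raw signal at or below 3038400; inconclusive means same 50% fall but final raw signal above 3038400; inactive means fall in fluorescence gain under 50%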;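 further: plate controls were neutral control wells for no effect and wells lacking membranes for full effect; tested at 10 µM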
# PABP FP inh = blocks human PABP binding to poly(A) RNA; inhibition, % at 35 µM; fluorescence polarization; AID 2014; hit rate 1% among 290,000;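 active means 50% or more with normal probe brightness, or confirmed in later tests; inconclusive means above 50% with abnormal brightness, or retests that disagree; inactive means below 50% or failed in later tests; about a fifth of its hits are not listed in these tables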;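 further: calls also rest on retests at 20 µM and on dose response follow-up; controls were probe without protein and protein plus probe with vehicle; some compounds called inactive have numbers as strong as hits; many hits fall short of the cut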
# Target sequence (P11940 whole entry, looked up): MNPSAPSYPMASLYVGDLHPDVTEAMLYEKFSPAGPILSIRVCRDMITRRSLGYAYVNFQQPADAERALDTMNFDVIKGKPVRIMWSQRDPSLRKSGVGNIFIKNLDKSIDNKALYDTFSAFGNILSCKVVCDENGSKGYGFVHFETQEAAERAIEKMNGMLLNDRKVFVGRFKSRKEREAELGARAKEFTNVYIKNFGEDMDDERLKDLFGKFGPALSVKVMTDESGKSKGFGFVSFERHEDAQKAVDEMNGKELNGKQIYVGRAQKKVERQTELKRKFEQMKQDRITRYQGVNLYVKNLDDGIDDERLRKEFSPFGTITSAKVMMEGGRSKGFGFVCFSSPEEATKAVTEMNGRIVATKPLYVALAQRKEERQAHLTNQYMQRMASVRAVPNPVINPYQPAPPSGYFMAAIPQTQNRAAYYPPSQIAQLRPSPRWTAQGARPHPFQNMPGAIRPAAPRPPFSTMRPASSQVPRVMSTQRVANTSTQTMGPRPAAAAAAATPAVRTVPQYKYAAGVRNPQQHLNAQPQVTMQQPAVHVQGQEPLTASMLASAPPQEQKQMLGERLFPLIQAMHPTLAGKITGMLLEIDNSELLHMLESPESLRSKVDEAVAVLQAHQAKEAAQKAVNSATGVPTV
# MT1-MMP act inh = inhibitors of human MT1-MMP activation. P50281. hit rate 0.061% among 360,000. HT1080 RFP-PRO-GFP cells, GFP/RFP ratio fluorescence, overnight; percent of plate control window, DMSO zero. GFP/RFP ratio change, % at 20 µM;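 active means GFP/RFP ratio change of at least 30% with cell ATP level not reduced by more than half and red fluorescence within 50% of control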; further: strong numbers were not always called active
#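 Assay system: HT1080 RFP-PRO-GFP cells. Benchmarks: DMSO vehicle wells and RFP-L50D-GFP reporter cell wells. Times: overnight cell settling, then overnight compound exposure, 37 °C, 5% CO2. Compound: 20 µM single dose, 1% DMSO. Read-out basis: GFP/RFP fluorescence ratio.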
# CSC inhib = blocks cancer stem cells; cancer stem cell-like cells viability, luminescence; inhibition, % at 7.5 µM; hit rate 1.1% among 300,000;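 active means mean at 75% or more and at least half the replicates too; inconclusive means mean and replicates disagree; tested in HMLE shEcad cells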;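 further: 0% = median of negative and 100% = median of positive control wells; the first replicate is given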
# MT1-MMP act inh RFP = recorded beside MT1-MMP act inh, whose call it bears; RFP signal change, %; measured here: RFP expression control read;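 0 = vehicle wells; hits needed this value within 50% of zero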
# Numbers without * were called inactive; i = inactive; ? = inconclusive; nt = not tested or not shown.
SMILES,HIV Env fusion,eIF4H FP inh,Yeast UUG start,Rce1 inh,PABP FP inh,MT1-MMP act inh,MT1-MMP act inh RFP,CSC inhib
CCOC(=O)Cn1cc(C=C2C(=O)N(C)C(=O)N(C)C2=O)c2ccccc21,11,?,-4,i,?,-1,6,-9
CC1CN1P1(=O)OCC(C)([N+](=O)[O-])CO1 (configuration not stated),-27,nt,-11,nt,nt,-1,3,nt
COc1nc(NC(C)C)nc(NC(C)C)n1,nt,4,-23,i,-2,-5,3,-5
c1cc2c(cc1CCNC1C3CC4CC(C3)CC1C4)OCO2 (configuration not stated),-5,-5,-9,i,0,3,0,19
C/C(=N\N1CCCCCC1)c1c(O)n(-c2ccc(C)cc2)c(=O)[nH]c1=O,-1,-8,-6,i,?,4,2,13
CCCC(=O)Nc1ccc(N2CCN(CC)CC2)c(Cl)c1,-16,-3,-8,i,1,0,3,-28
COC(=O)C1=C(c2cccc(C#N)c2)C[C@@H]2CC[C@H]1N2C(=O)N1CCCC1,-6,nt,-1,nt,nt,1,1,-13
CC1(C)C2SCC(=O)N2CCN1CC(=O)NN (configuration not stated),5,-6,-2,i,-5,-2,1,-23
COc1ccccc1N(CC(=O)NC1CCCCC1)C(=O)c1cnn(C(C)C)c1,-79,5,-5,i,-14,5,4,nt
CCOC(=O)C1(CCc2ccccc2)CCN(Cc2ccco2)CC1,11,-8,nt,i,1,-1,0,21
CC1=NN=C(c2ccc(N)cc2)c2cc3c(cc2C1)OCO3,-17,nt,-4,nt,nt,-15,4,-8
O=C(C1CCN(c2nc3ccc(Br)cc3s2)CC1)N1CCC2(CC1)OCCO2,nt,-3,nt,i,-4,-6,-29,18
Cc1c(NC(=O)C(C)OC(=O)Cc2ccccc2)c(=O)n(-c2ccccc2)n1C (configuration not stated),nt,-5,-10,i,-9,1,-1,-6
CC(C)c1ccc(N2C(=O)NC(=O)/C(=C/C=C/c3ccco3)C2=O)cc1,nt,?,nt,i,7,-43,16,98*
CN[C@@H]1C[C@@H](c2ccc(Cl)c(Cl)c2)c2ccccc21,nt,8,nt,i,-9,nt,nt,31
C=CC[N+]1(C)C2CCC1CC(O)C2 (configuration not stated),7,-1,0,i,2,4,5,-1
CCCNS(=O)(=O)c1ccc(OCC(=O)N2CCN(C)CC2)cc1,-19,0,-20,i,1,4,4,-6
CSc1ccc(CN2CCN(c3ccccc3C)CC2)cc1,-2,20,1,i,6,0,-6,nt
Cc1ccc(C)c(NC(=O)CSc2nnc([C@@H](N)Cc3c[nH]c4ccccc34)o2)c1,0,5,-9,nt,8,4,3,-8
O=P(Nc1cccnc1)(Oc1ccccc1)Oc1ccccc1,?,-4,nt,i,-11,-4,2,-9
COc1ccc(C(c2nnnn2-c2ccc3c(c2)OCCO3)N2CCC(n3c(=O)[nH]c4ccccc43)CC2)cc1 (configuration not stated),12,nt,-1,nt,nt,-6,-9,nt
CCCCn1nnnc1C(CCSC)N1CCC(n2c(=O)[nH]c3ccccc32)CC1 (configuration not stated),1,nt,-30,nt,nt,-4,1,nt
CC(Cl)(Cl)/C(=N/P(=S)(N1CCOCC1)N1CCOCC1)N1CCOCC1,7,2,9,i,2,0,-1,49
CCOc1ccccc1-n1c(O)c(C=NCc2ccc3c(c2)OCO3)c(=O)[nH]c1=O,nt,-2,2,i,1,-2,5,-8

# Four of the compounds above, as tab-separated lines.
smiles	HIV Env fusion	eIF4H FP inh	Yeast UUG start	Rce1 inh	PABP FP inh	MT1-MMP act inh	MT1-MMP act inh RFP	CSC inhib
O=P(Nc1cccnc1)(Oc1ccccc1)Oc1ccccc1	?	-4	nt	i	-11	-4	2	-9
COc1ccc(C(c2nnnn2-c2ccc3c(c2)OCCO3)N2CCC(n3c(=O)[nH]c4ccccc43)CC2)cc1 (configuration not stated)	12	nt	-1	nt	nt	-6	-9	nt
CCCCn1nnnc1C(CCSC)N1CCC(n2c(=O)[nH]c3ccccc32)CC1 (configuration not stated)	1	nt	-30	nt	nt	-4	1	nt
CC(Cl)(Cl)/C(=N/P(=S)(N1CCOCC1)N1CCOCC1)N1CCOCC1	7	2	9	i	2	0	-1	49

# Continued:
SMILES,HIV Env fusion,eIF4H FP inh,Yeast UUG start,Rce1 inh,PABP FP inh,MT1-MMP act inh,MT1-MMP act inh RFP,CSC inhib
CN(C)C(Cc1ccc(C#N)cc1)C(=O)c1ccccc1 (configuration not stated),-33,-6,-14,i,-3,-11,8,7
Cc1cccc(NP(C)(=O)c2nc3c(s2)CCCC3)c1 (configuration not stated),5,-9,-16,i,5,1,4,-12
COC(=O)C1=C(c2ccc(F)cc2F)C[C@@H]2CC[C@H]1N2C(=O)N1CCOCC1,-15,nt,-12,nt,nt,-3,5,-21
Cc1ccc(NC(=O)CCNC(=O)N2C[C@H]3C[C@@H](C2)c2cccc(=O)n2C3)c(C)c1,nt,-2,-8,nt,-13,7,5,-2
CCCCn1nnnc1C(C1CC1)N1CCC(n2c(=O)[nH]c3ccccc32)CC1 (configuration not stated),-106,nt,-5,nt,nt,-2,-2,nt
COc1ccc(C(O)C(C)NC(C)C(O)c2ccc(OC)cc2)cc1 (configuration not stated),-5,nt,-5,i,nt,1,1,nt
CC(=O)OC1N=C(c2ccccc2)c2ccccc2NC1=O (configuration not stated),-24,-1,-20,i,1,7,8,-8
C=CC(C)C(C(=O)c1ccccc1)N(C)C (configuration not stated),-3,-12,nt,i,0,0,2,4
CC(=O)NC(C)Cc1ccccc1 (configuration not stated),nt,-7,1,i,-20,-5,0,5
COC(=O)C1=C(c2ccc(OCc3ccccc3)cc2)C[C@@H]2CC[C@H]1N2C(=O)NCc1cccc(OC)c1,-248,nt,-18,nt,nt,-3,-13,16
O=C(CF)NC(Nc1cccc2cccnc12)C(Cl)(Cl)Cl (configuration not stated),nt,-8,nt,i,-5,49*,-9.0*,-10
OCCN(CC#CC(O)(c1ccccc1)C1CCCC1)CCO (configuration not stated),nt,-2,-11,i,-1,-1,5,nt
COC(=O)[C@@H]1C[C@]2(C(=O)O)c3ccccc3N(OOSc3ccccc3)[C@@H]2N1C(=O)OC,-19,nt,-8,i,nt,0,3,-2
CC(C)(C)n1cc(C(=O)c2ccccc2OCCCF)cn1,6,3,-23,i,1,-2,-3,-10
Cn1c(O)c(C=NCc2cccs2)c(=O)n(C)c1=O,nt,4,-13,i,-1,-4,-4,-7
O=C(c1ccco1)c1cn(Cc2ccc(Cl)cc2)c2ccccc12,nt,6,-8,i,4,-2,-10,-19
COC(=O)C1=C(c2ccc(S(C)(=O)=O)cc2)C[C@@H]2CC[C@H]1N2C(=O)NCc1ccco1,-45,nt,3,i,nt,-1,2,11
COc1ccc(CC2(CCc3ccncc3)C(=O)NC(=O)NC2=O)c(OC)c1,7,-11,nt,i,5,-1,0,-5
O=C(O)CCC(=O)NCCC1=c2ccccc2=N/C1=C\c1c(O)n(Cc2ccc(F)cc2)c(=S)[nH]c1=O,6,34,-20,i,16,-9,15,-13
CC(=O)c1ccc2c(c1)C1C(Cl)C(Sc3ccccc3[N+](=O)[O-])CC1C(c1ccccc1)N2 (configuration not stated),-57,5,-11,i,42,6,-1,11
CCC(CC)NCc1c[nH]c2ccccc12,9,9,nt,i,1,-4,2,-13
COc1ccc(NC(=S)NC(NC(=O)CF)C(Cl)(Cl)Cl)cc1[N+](=O)[O-] (configuration not stated),14,2,-10,i,-10,0,-5,2
O=[N+]([O-])c1cccc(O)c1,nt,nt,-8,nt,nt,1,5,-8
CN1CCN(Cc2ccccc2Sc2ccccc2)CC1,nt,2,-15,i,-2,-8,-4,30

# Quoted at random: 2 entries already listed.
SMILES,HIV Env fusion,eIF4H FP inh,Yeast UUG start,Rce1 inh,PABP FP inh,MT1-MMP act inh,MT1-MMP act inh RFP,CSC inhib
Cn1c(O)c(C=NCc2cccs2)c(=O)n(C)c1=O,nt,4,-13,i,-1,-4,-4,-7
CC(=O)NC(C)Cc1ccccc1 (configuration not stated),nt,-7,1,i,-20,-5,0,5

# Continued:
SMILES,HIV Env fusion,eIF4H FP inh,Yeast UUG start,Rce1 inh,PABP FP inh,MT1-MMP act inh,MT1-MMP act inh RFP,CSC inhib
COC(=O)C1=C(c2cccc(C#N)c2)C[C@@H]2CC[C@H]1N2C(=O)NCCO,-3,nt,-18,nt,nt,5,7,-26
N=C1c2ccccc2CN1NC(=O)c1ccco1,-65,nt,-13,nt,nt,-3,3,-10
COc1ccc(-c2nc3ccccc3n2OC(=O)N(C)C)cc1,-31,-2,-5,i,2,1,-3,4
Cc1ccccc1CCNCc1ccc(Br)cc1,-3,-5,-25,i,-2,4,5,16
O=C(COc1ccc(S(=O)(=O)N2CCCCC2)cc1)N1CCN(Cc2ccccc2)CC1,nt,-7,2,i,4,6,-9,7
Cc1nc2ccccc2c(=O)n1-c1ccc(Cl)cc1[N+](=O)[O-],6,1,nt,i,-3,2,3,-3
Cc1cc(C=C2C(=O)NC(=S)NC2=O)c(C)n1C1CCCC1,-42,11,-22,i,1,-11,-1,17
COc1ccc(-n2nc(C(=O)NCC(=O)N3CCC4(CC3)OCCO4)c3ccccc3c2=O)cc1,-48,-2,-15,i,-6,4,5,-12
Cc1ccc(S(=O)(=O)N2CCN(C(=O)COC(=O)Cc3ccccc3)CC2)c(C)c1,-3,nt,19,i,nt,5,2,-10
O=C1NC(=O)C2(Cc3ccccc3N3CCOCC32)C(=O)N1c1ccccc1 (configuration not stated),nt,1,-8,i,-3,-2,-3,-2
C=CCN(CC#CCOc1ccccc1OC)CC=C,nt,32,nt,i,-4,nt,nt,-17
O=c1[nH]c(=O)n(-c2cccc(Cl)c2)c(O)c1C=NCCCN1CCOCC1,nt,2,-6,i,-10,6,9,-9
CCN(CC)c1ccc(N=Cc2c(O)n(CCC3=CCCCC3)c(=O)[nH]c2=O)cc1,-7,-9,-21,i,?,-212,3,-5
C=CCn1c(O)c(/C=N/N2CCCCC2)c(=O)[nH]c1=O,-21,2,-17,i,7,-3,4,-1
COc1ccc(OC)c(CC(=O)O)c1,-2,-1,-11,i,8,-2,4,nt
C=CC(=O)OCCO,7,nt,-10,nt,nt,-1,1,nt
O=C(c1ccncc1)C12CN3CN(CN(C3)C1)C2,nt,-4,-47,i,-9,-5,0,-8
CCOc1ccc(N=Cc2c(O)n(Cc3ccccc3)c(=S)[nH]c2=O)cc1,-6,-12,nt,i,-13,2,6,4
CCCCNc1ccncc1S(=O)(=O)NC(=O)NC(C)C,nt,0,-19,i,-15,4,1,nt
O=C(COc1ccc(Br)cc1)N1CCN(Cc2ccc3c(c2)OCO3)CC1,-1,28,-17,i,0,-4,-5,-13
C[N+]1(C)C2CC(OC(=O)C(CO)c3ccccc3)CC1C1OC12 (configuration not stated),14,nt,-20,nt,nt,5,6,-16
CCC(=O)c1c(O)n(C2CCCCCC2)c(=O)[nH]c1=O,nt,31,-43,i,29,-12,1,-34
O=c1[nH]c2ccccc2n1C1CCN(C(c2ccccc2)c2nnnn2-c2ccc3c(c2)OCCO3)CC1 (configuration not stated),13,nt,-16,nt,nt,-18,-16,nt
O=C1NC(=O)C(CCc2ccncc2)(CCc2ccncc2)C(=O)N1CCc1ccccc1,20,5,-22,i,0,-4,1,-6
CCCC(CCC)C(=O)OC[N+](C)(C)CCOC(=O)C(O)(c1ccccc1)C1CCCC1 (configuration not stated),4,-1,9,i,5,-5,3,-12
CCCCn1c(O)c(C(C)=NCc2ccc3c(c2)OCO3)c(=O)[nH]c1=O,0,6,nt,i,8,7,-1,6
CCOC(=O)c1ccc2[nH]c(-c3ccc(S(=O)(=O)F)cc3)cc(=O)c2c1,-1,3,-10,i,10,-1,2,-1
O=c1[nH]c(=S)n(Cc2ccc(F)cc2)c(O)c1C=NCc1cccnc1,5,-1,-5,i,3,-5,0,-1
c1ccc(C2NCCc3[nH]cnc32)cc1 (configuration not stated),0,-10,-9,i,-8,-8,3,3

# An excerpt; rates above refer to the full screens.
